VACV Venus inh: qHTS for Stage-Specific Inhibitors of Vaccinia Orthopoxvirus: Venus Reporter Primary qHTS; Potency, µM (series often up to 36.5 µM), for the others: at the top dose activity change, negative = inhibition, hits mostly inhibitors; actives 0.46% (n = 330,000); Vaccinia virus Venus reporter expression, fluorescence; AID 720580, 2013; active means well fitted inhibition curve with a large enough effect; inconclusive means small, poorly fitted or top-dose-only effect; inactive means no such curve, though single readings can be large or run the other way; tested in A549 cells; further: nearly all actives have a fitted effect of over 30% in size; inactives centre near -10
VACV mCherry inh: qHTS for Stage-Specific Inhibitors of Vaccinia Orthopoxvirus: mCherry Reporter Primary qHTS | Vaccinia virus mCherry reporter infection, fluorescence; about a quarter of the inactives have no number | Potency, µM (top dose mostly 36.5 µM), inactives show at the top dose activity change, negative = inhibition, actives largely listed as inhibitors | actives 0.63% (n = 310,000) | AID 720579, 2013; active = well fitted inhibition curve with a large enough effect; inconclusive = small, poorly fitted or top-dose-only effect; inactive = no such curve, though single readings can be large or run the other way; tested in A549 cells; further: nearly all actives have a fitted effect of over 35% in size; inactives centre near -10
* hit, by the source's call; i = inactive; ? = inconclusive; . = no result given; [ ] = remark or other dose. On the % scale 0 is the no-effect control and ±100 the full control effect; potency means the concentration at half of the fitted maximal effect.

Structure | VACV Venus inh | VACV mCherry inh
O=C(N/N=C/C(Br)=C/c1ccccc1)c1cnccn1 | -24.7% | -20.6%
O=C(c1ccc(COc2ccc(F)cc2)o1)n1cccn1 | -11.0% | i
CCCCSc1nc(O)c(C2OC(=O)c3c2ccc(OC)c3OC)c(=O)n1C (configuration not stated) | -9.9% | -12.3%
COC(=O)C1=C(c2cc3ccccc3o2)C[C@@H]2CC[C@H]1N2C(=O)NCCO | -14.5% | -0.2%
CC(C)(CNc1ccc([N+](=O)[O-])cc1C#N)N1CCOCC1 | -9.7% | i
O=C(CN1C(=O)NC(Cc2ccccc2)C1=O)Nc1ccc(OC(F)F)cc1 (configuration not stated) | -24.9% | -7.0%
CC(C)(C)n1nc2c(c1NC(=O)Cc1cccc3ccccc13)CS(=O)C2 (configuration not stated) | -13.7% | -13.9%
COc1cccc(CNC(=O)c2csc3c2CCCC3)c1 | -8.9% | -11.9%
CN(C)/C=C1\N=C(c2cccnc2Oc2ccc(Cl)cc2)OC1=O | 4.7% | -20.8%
O=C(N/N=C/c1ccc(O)cc1)c1cc(C23CC4CC(CC(C4)C2)C3)[nH]n1 | -27.3% | i
COc1ccc(S(=O)(=O)N2CCc3ccccc3C2)cc1OC | -7.8% | -19.0%
O=C1c2ccsc2SCCN1Cc1ccc(Cl)cc1 | -18.2% | .
COc1cccc(NC(=S)N(CCN2CCCCC2)Cc2ccco2)c1 | -9.1% | -4.9%
CCC1CN(C(=O)Nc2ccc(Br)cc2F)c2ccccc2S1 (configuration not stated) | -10.5% | -11.8%
COc1ccc(OC)c(NC(=O)NCCc2cccc(Cl)c2)c1 | -7.5% | -12.3%
Cc1c(C#N)sc2nc(-c3ccccc3)nc(N3CCCC3)c12 | -14.1% | .
COc1ccc([C@H]2/C=C\CN(S(=O)(=O)c3cccc4cccnc34)[C@@H](C)C(=O)N2Cc2ccc(F)cc2)cc1 | -15.5% | -5.4%
N#Cc1ccsc1NC(=O)COc1ccc(-c2nnco2)cc1 | -6.5% | -20.2%
COCc1cc(C)nc(OCC(=O)N/N=C/c2cc(C)n(-c3c(C)cccc3C)c2C)c1C#N | ? | .
CN(C(=O)CSc1ncnc2sc3c(c12)CCCC3)C1CCS(=O)(=O)C1 (configuration not stated) | -10.6% | -20.8%
Cc1ccc(N=Cc2c(O)n(-c3nccs3)c(=O)c3ccccc23)c(C)c1 | -3.0% | -14.4%
COc1cc(C(F)(F)F)c(C(=O)N(C)Cc2cccc(Cl)c2)cn1 | -7.8% | -12.4%
O=C(NCc1ccccn1)c1ccc(OC2CCN(Cc3ccc(F)cc3F)CC2)cc1 | -14.9% | -0.6%
Cc1nc2ccccn2c1-c1csc(Nc2cccc(O)c2)n1 | ? | ?
O=C(Oc1ccc(C(=S)N2CCOCC2)cc1Br)c1ccccc1F | -0.2% | -12.2%
COc1cc(-c2cc3nc(NCCOc4ccccc4)ccn3n2)cc(OC)c1OC | -22.7% | -7.9%
C=CCN1C(=O)/C(=C/c2cccs2)C(=O)NC1=S | 70.5%[activator] | 37.0%[activator]
O=c1c(C/C=C/c2ccccc2)c(O)ccn1Cc1ccc(Cl)cc1Cl | 0.0% | -17.8%
COCCSc1ccccc1C(=O)NCc1ccco1 | -11.4% | i
COc1cccc(CN2CCN(c3nc4nonc4nc3NC3CC3)CC2)c1 | -8.2% | i
CC(=O)Nc1ccc(S(=O)(=O)N2CCN=C2SCc2ccc([N+](=O)[O-])cc2)cc1 | -16.8% | -10.5%
CC(C)CN(C(=O)CC1OC(=O)c2ccccc21)c1c(N)n(Cc2ccccc2)c(=O)[nH]c1=O (configuration not stated) | -8.3% | -0.4%
CCOc1ccc(N(CC(=O)Nc2ccccc2)S(C)(=O)=O)cc1 | -27.5% | .
COc1ccc(/C=C/C(=O)OCC(=O)Nc2ccc(Cl)cc2F)cc1S(=O)(=O)N1CCOCC1 | -11.9% | -19.3%
CC(C)C1N(C(=O)N(C)C)CCN1S(=O)(=O)c1ccccc1 (configuration not stated) | -7.4% | 8.1%
CN1OC[C@@H]2CN(Cc3ccccc3)[C@H](c3ccc(N4CCCCC4)cc3)C[C@@H]21 | -5.7% | 1.3%
COc1ccc(C(C)NC(=O)c2ccc(Cl)cc2)cc1OC (configuration not stated) | -8.4% | 0.0%
Cc1cc(Br)ccc1NC(=O)C(NS(=O)(=O)c1cccs1)c1ccccc1 (configuration not stated) | -6.7% | -11.7%
Cc1oc(-c2ccc(F)cc2F)nc1CN1CCN(C(=O)c2ccco2)CC1 | -14.5% | i
CC(C(=O)NCC(=O)Nc1ccc(F)c(F)c1F)N1CCN(Cc2ccc(C#N)cc2)CC1 (configuration not stated) | -15.5% | -21.0%

Next section, starting with the last six of the part before.
Structure | VACV Venus inh | VACV mCherry inh
CC(C)C1N(C(=O)N(C)C)CCN1S(=O)(=O)c1ccccc1 (configuration not stated) | -7.4% | 8.1%
CN1OC[C@@H]2CN(Cc3ccccc3)[C@H](c3ccc(N4CCCCC4)cc3)C[C@@H]21 | -5.7% | 1.3%
COc1ccc(C(C)NC(=O)c2ccc(Cl)cc2)cc1OC (configuration not stated) | -8.4% | 0.0%
Cc1cc(Br)ccc1NC(=O)C(NS(=O)(=O)c1cccs1)c1ccccc1 (configuration not stated) | -6.7% | -11.7%
Cc1oc(-c2ccc(F)cc2F)nc1CN1CCN(C(=O)c2ccco2)CC1 | -14.5% | i
CC(C(=O)NCC(=O)Nc1ccc(F)c(F)c1F)N1CCN(Cc2ccc(C#N)cc2)CC1 (configuration not stated) | -15.5% | -21.0%
Cc1ccc(-c2noc(-c3ccc(N4CCCCC4)c([N+](=O)[O-])c3)n2)cc1 | -7.9% | -3.4%
COc1ccc(C(=O)NCc2ccc(F)cc2)cc1S(=O)(=O)N1CCCC1 | -11.7% | -2.6%
CCN(CC)C(=O)C(=O)c1cccn1-c1ccccc1C#N | -14.7% | -20.0%
COCC(C)n1c(COc2ccccc2F)nnc1SCC(=O)c1c(N)n(C)c(=O)n(C)c1=O (configuration not stated) | -26.3% | -17.2%
Cc1cc(C)cc(NC(=O)c2cc(S(=O)(=O)N3CCc4ccccc43)cn2C)c1 | -16.1% | -14.4%
CN(C)C(=O)[C@H]1C[C@H]1[C@@H](O)[C@H](CO)NC(=O)[C@H](COCc1ccccc1)NC(=O)OC(C)(C)C | -1.7% | i
COCCCNC(=O)c1c(NC(=O)Cc2coc3cc(C)ccc23)sc2c1CCCC2 | -1.8% | -8.4%
c1ccc2c(NCCc3c[nH]c4ccccc34)c3ccccc3nc2c1 | 8.91µM* | ?
CC(=O)Nc1ccc(C(=O)OCc2ccccc2Cl)cc1 | -11.5% | -9.4%
COc1ccc(OC)c(NC(=O)CCCOc2cc(=O)n(C)c3ccccc23)c1 | 1.5% | -11.6%
CCNC(=O)N1Cc2ccccc2-n2nncc2C1 | 3.2% | -11.1%
CC(=O)c1cc(C#N)c(Oc2cc(C)cc(C)c2)nc1C | -19.3% | -20.9%
COc1ccc(-c2nc3ccccc3s2)cc1NC(=O)c1ccccc1F | ? | ?
O=C(Nc1ccc(S(=O)(=O)O)cc1)c1ccc2c(c1)S(=O)(=O)c1ccccc1C2=O | -0.8% | -17.8%
CSc1sc(C(=O)N(C)C)c2c1S(=O)(=O)N(C)c1ccccc1-2 | -5.8% | i
CCN1C(=O)c2ccc(-c3nc4ccccc4c(=O)o3)cc2C1=O | -23.8% | -24.2%
COc1cccc(CCN2C(=O)CCC3=C2CCC3=O)c1 | 5.7% | 2.0%
Cc1ccc(S(=O)(=O)N2CCCCC2C(=O)N2CCN(c3ccccc3F)CC2)cc1 (configuration not stated) | -8.1% | -15.0%
CCOC(=O)N1CCC(NC(=O)c2cc(C(=O)Nc3ccc(F)cc3F)ccc2CO)CC1 | -5.6% | -9.2%
CCC(CC)c1nnc(NC(=O)Cc2c[nH]c3ccccc23)s1 | -19.9% | -7.7%
Nc1cc(N)nc(SCC(=O)c2ccc3c(c2)NC(=O)CO3)n1 | -9.9% | i
CCCCN1C(=O)C(CC(=O)NC2CCCC2)CC(C(=O)N2CCOCC2)=C1C (configuration not stated) | -6.5% | -6.0%
Cc1cccc(C(=O)Nc2ccc(OCc3cc(=O)n4ccsc4n3)cc2)c1 | -8.0% | -4.6%
CCOC(=O)C1CCN(C(=O)COc2cccc(C)c2)CC1 | -9.1% | 3.98µM*
CN(CCCNC(=O)c1ccc(N2CCCC2=O)cc1)c1ccccc1 | -16.6% | .
COc1ccc(C(=O)N/N=C(\C)CC(=O)NC2CCCCC2)c(OC)c1 | -27.4% | i
CC(=O)c1cccc(CN2CCN(C3CCCCC3)C(CCO)C2)c1 (configuration not stated) | -17.0% | -12.3%
O=C(Nc1cccc(C(=O)O)c1)Nc1cccc2ccccc12 | -4.3% | -1.8%
CCC(C(=O)Nc1cccc(-c2cn3cccnc3n2)c1)c1ccccc1 (configuration not stated) | -2.9% | i
COc1ccc2c(C)c(CCC(=O)NCCCN3CCCC3=O)c(=O)oc2c1C | -1.6% | 6.4%
Cc1ccc(S(=O)(=O)/N=S(/C)c2ccccc2)cc1 (configuration not stated) | -23.3% | .
CCOC(=O)c1cccc(NC(=O)Cn2c(=O)nc(-c3ccccc3F)c3cc(Cl)ccc32)c1 | -14.9% | i
Cc1nnc(NC(=O)C2CCCN(S(=O)(=O)Cc3ccccc3)C2)s1 (configuration not stated) | -8.3% | i
O=C(Nc1nc(-c2ccc(Cl)cc2Cl)cs1)C1CCCO1 (configuration not stated) | -11.8% | -25.3%
C[C@]12CC[C@H](O)C[C@H]1CC[C@@H]1[C@@H]2CC[C@]2(C)[C@@H](C3=CC(=O)OC3)CC[C@]12O | 1.12µM* | ?
O=C(N/N=C/c1ccc(-n2ccnc2)cc1)c1cccs1 | -1.1% | i
O=C(Cc1ccc(Cl)cc1)Nc1ccccc1C(=O)Nc1ccc(C(=O)O)cc1 | -5.4% | i
O=C(NCCN1CCc2ccccc2C1)C1CC(=O)N(C2CCCC2)C1 (configuration not stated) | 12.8% | -8.6%
COc1ccc(/C=C/C(=O)c2ccccc2)c(OC)c1 | -2.0% | -2.0%
Cc1cc(=O)n2nc(N3CCCC3C(=O)Nc3ccccc3C)sc2n1 (configuration not stated) | -2.1% | -12.8%

Record cards (already shown). Order of values: VACV Venus inh	VACV mCherry inh
Shown for `O=C(Nc1nc(-c2ccc(Cl)cc2Cl)cs1)C1CCCO1` (configuration not stated) = -11.8%	-25.3%
Shown for `COc1ccc(C(=O)N/N=C(\C)CC(=O)NC2CCCCC2)c(OC)c1` = -27.4%	i

Continued.
Structure | VACV Venus inh | VACV mCherry inh
CC(C)CN(C(=O)CSc1nc2ccccc2[nH]1)c1c(N)n(Cc2ccccc2)c(=O)[nH]c1=O | -13.8% | -4.2%
Cc1cccc(CCNCc2cc3cccc(C)c3[nH]c2=O)c1 | -4.2% | -29.9%
CC(C)(C)NC(=O)c1cccc2c1OC(C)(C)C2 | -6.4% | -20.6%
Cc1cccc(NC(=O)CSc2nc3c(oc4ccccc43)c(=O)n2Cc2ccco2)c1 | -23.2% | -24.9%
Cc1nc(C(C)NC(=O)CCc2nnc(Cc3c[nH]c4ccccc34)o2)cs1 (configuration not stated) | -3.6% | ?
O=S(=O)(NCCc1csc2nc(-c3ccccc3)nn12)c1cc(F)ccc1F | -7.7% | -0.6%
COC(=O)c1ccc2nc(-c3ccco3)c(Cc3cccc(Cl)c3)n2c1 | -10.5% | -2.5%
CCC(C(=O)NC1CCCCC1)n1c(SCc2ccc(F)cc2)nc2ccncc21 (configuration not stated) | -8.7%[7.34 µM] | -13.1%[7.34 µM]
CCOC(=O)C1C(c2ccc(C)o2)NC(=O)NC1(O)C(F)(F)F (configuration not stated) | -6.9% | -9.5%
CC1=C(C(=O)Nc2ccc(C)cc2C)C(c2cccs2)n2nc(SCc3ccc(Cl)cc3)nc2N1 (configuration not stated) | 4.7% | 1.4%
CS(=O)(=O)N1CCC(C(=O)Nc2ccc(Br)cc2F)CC1 | -17.9% | -15.5%
COc1cc(C(=O)N/N=C/c2cccc(Oc3ccccc3)c2)ccc1O | -27.3% | -17.7%
CC(C)N1CCN(c2ccc(OCC3COC(Cn4cncn4)(c4ccc(Cl)cc4Cl)O3)cc2)CC1 (configuration not stated) | -17.8% | i
C=CCN1C(=O)C(C)S/C1=N\S(=O)(=O)c1ccc(Cl)cc1 (configuration not stated) | -17.3% | -13.8%
CCn1cc(C(=O)N2CCN(c3ccc(F)cc3)CC2)c(=O)c2cc(S(=O)(=O)N(C)C3CCCCC3)ccc21 | -19.5% | ?
CCCOc1cc(C)c(S(=O)(=O)n2ccc(C)n2)cc1C | -17.3% | .
CN1CCN(c2ccc(CNC(=O)C3Cc4c(-c5ccccc5Oc5ccccc5)ccnc4O3)cc2)CC1 (configuration not stated) | ? | ?
CC1=NOC(=O)/C1=C\c1ccccc1 | -9.5%[7.34 µM] | i[7.34 µM]
CCOC(=O)c1c(C)cc(OC)cc1O | -4.5% | -13.7%
CCOc1ccc([C@@H]2CC=C(C(=O)O)[C@H](c3ccc(F)cc3)N2S(=O)(=O)c2ccc(C)cc2)cc1 | -8.4% | 1.9%

Screens as filed in PubChem BioAssay.
